High-throughput results as filed in PubChem BioAssay.
Mtb hypoxia inh: reduces hypoxia-regulated biosensor signal in M. tuberculosis; M. tuberculosis hypoxia-regulated fluorescent reporter, fluorescence; fluorescence inhibition, % (concentration not given with the values); actives 0.1% (n = 300,000); AID 1159583;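 active = 35 to 45% if threefold the growth effect, above 45% if 1.5-fold the growth effect; inactive = the rest, general growth blockers included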;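 note: wells of about 50 µL received 100 nL stock; 0% = vehicle wells and 100% = reference inhibitor wells; whole bacteria with a GFP reporter of the hypoxia response; strong numbers were not always called active; many hits fall short of the cut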
RN4220 kill: kills Staphylococcus aureus RN4220; AID 1259311; S. aureus RN4220 growth, OD600, 16 h; actives 0.33% (n = 330,000); inhibition, % (test concentration not listed);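 active = z-score of -3 or lower and OD600 up to 0.18 on both plates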;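 note: plate controls were untreated cells for no effect and reference antibiotic for full effect; stock transfer was 100 nL into about 80 µL; one replicate is shown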
PrP 5UTR inh: inhibition of PrP 5' UTR reporter expression; cell-based PrP 5' UTR mRNA reporter, plate reader; inhibition, % (no concentration beside the values); actives 0.35% (n = 340,000);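 active = every replicate at 50% or more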;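 note: 0 = median of the neutral control wells; tested in H4 reporter cells; numbers are from one replicate; inactives centre near -14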
Bead autofluor: flagged as autofluorescent in microsphere protease counterscreen; compound autofluorescence counterscreen, microsphere flow cytometry; active compounds read high; fluorescence intensity (concentration not given with the values); actives 3.1% (n = 360,000); AID 624483;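 active = at least 3 SD above the mean of all compounds, about 16000 in these data; inconclusive = too few beads counted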;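 note: 100 nL of 1 mM stock went into each well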
ugtP null kill: growth inhibition of S. aureus ugtP deletion strain; growth inhibition, % (no concentration beside the values); S. aureus RN4220 ugtP deletion, OD600 growth, 16 h; some inactives read as strong as hits; actives 0.54% (n = 330,000);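 active = z-score under -3 and OD600 up to 0.15 on both plates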;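 note: plate controls were untreated wells for no effect and antibiotic for full effect; wells of about 80 µL received 100 nL stock; the first replicate is given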
BJeLR viability: BJeLR cell viability loss. inhibition, % (test concentration not listed). BJeLR (HRASV12) viability, CellTiter-Glo ATP luminescence, 48 h; reference of the scale not given here. AID 1554. actives 0.17% (n = 300,000);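 active = replicate mean above 50%; inconclusive = above 50% but judged a plate artefact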;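 note: 50 nL library stock added to about 25 µL; numbers are from one replicate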
Mtb hypoxia inh growth: further read-out of Mtb hypoxia inh, marked with its call; growth inhibition, %; measured here: M. tuberculosis growth (absorbance);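 0% = vehicle and 100% = reference antibiotic; read after six days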
* hit, by the source's call; ? = inconclusive; . = no result given. Compounds were not picked by outcome; about 4% have a hit in one of these screens.

Molecule | Bead autofluor | ugtP null kill | PrP 5UTR inh | RN4220 kill | BJeLR viability | Mtb hypoxia inh | Mtb hypoxia inh growth
COc1ccccc1C(=O)NCCC(=O)N(C)CC(=O)Nc1ccc(C)cc1 | 5849 | -2 | -20 | -0.4 | -3 | 0 | 0
O=C(COC(=O)c1cc(-c2ccccn2)nc2ccccc12)Nc1ncc(C(F)(F)F)cc1Cl | 3986 | 0 | -8 | 3.5 | 1 | -3 | 1
NC(=NOC(=O)c1ccccc1F)c1nonc1N | . | -6 | . | -5.8 | . | -9 | -12
CCN(C(=O)COC(=O)c1cccc(S(=O)(=O)N(CC)CC)c1)C1CCS(=O)(=O)C1 (stereo unspecified) | 4164 | 15 | -12 | 3.5 | -1 | 13 | -2
CN1CCN(c2cc(-c3cc(O)c4ncccc4c3)ccn2)CC1 | 3279 | -6 | 4 | 2.5 | . | 12 | 9
COc1ccc(S(=O)(=O)Nc2cccc(F)c2)cc1C | 3336 | 12 | -45 | 7.7 | 7 | 13 | 7
COc1ccc(C=O)cc1CSc1nnc(COc2cccc3cccnc23)o1 | 5079 | 2 | -8 | 3.2 | -5 | . | .
COc1ccc(CN2CC[C@H]3C=CC[C@@H](C(=O)N4CCOCC4)[C@H]3C2=O)cc1OC | 4248 | . | 3 | . | -9 | . | .
O=C1C=C(Nc2ccc(Cl)cc2)CC(c2ccco2)C1 (stereo unspecified) | 3100 | -5 | -9 | -5.6 | -2 | 3 | 9
COc1ccc2nc(CNC(=O)C3CCC(=O)N(CCc4ccccc4)C3)[nH]c2c1 (stereo unspecified) | 4507 | 9 | -12 | 0.8 | -2 | 4 | -6
O=C(Nc1ccnn1C1CCN(Cc2ccc(F)cc2)CC1)C1CC1 | 6304 | 7 | -21 | 3.2 | 7 | 1 | -4
O=C(NCC1OCCc2ccccc21)c1ccc(NC(=O)c2ccc(Cl)cc2Cl)cc1 (stereo unspecified) | 2320 | -2 | -45 | 5.6 | 20 | 7 | -2
Cc1[nH]c2ccccc2c1C(=O)COc1ccccc1F | 3185 | 10 | -31 | -19 | -8 | 4 | 7
COc1cccc(C2C(C#N)=C(N)N(N(C)C)C3=C2C(=O)CC(C)(C)C3)c1OC (stereo unspecified) | 3507 | -6 | -19 | -1.8 | -19 | -11 | -2
CCOC(=O)Cc1csc(NC(=O)/C=C/c2ccc(Cl)cc2)n1 | 4347 | -4 | -19 | 0.9 | 0 | 6 | -7
Cc1cc(NC(=O)CN2CCCCC2)no1 | 1988 | 6 | -19 | 3.8 | -6 | 2 | -2
COc1cc(C(C#N)N2CCOCC2)ccc1O (stereo unspecified) | 11379 | -7 | 1 | -3.2 | . | -2 | 6
CCOC(=O)c1cc(NC(=O)NCc2ccco2)c(C)nc1C | 3116 | 8 | -2 | 13 | -18 | 5 | 8
CC1CCN(C(=O)CN(c2ccc(Oc3ccccc3)cc2)S(C)(=O)=O)CC1 | ? | 1 | -19 | 3.8 | -12 | 13 | 8
Cc1ccc(N2CC(C(=O)OCC(=O)Nc3ccc(Cl)cc3)CC2=O)cc1 (stereo unspecified) | 4048 | -1 | -16 | 5.0 | . | 4 | 10
CC(=O)COc1ccc2oc(=O)cc(-c3cc4ccccc4o3)c2c1 | 5401 | -6 | -20 | 5.0 | 0 | 4 | -1
Cc1ccc(NC(=O)c2ncn(CC(=O)NCc3ccc4c(c3)OCO4)n2)cc1C | 2930 | -6 | -42 | -5.6 | . | -8 | -1
CCCCn1c(=O)c(CCC(=O)OCC(=O)NCc2ccc(OC)c(OC)c2)nc2ccccc21 | 4574 | 1 | -50 | -0.3 | -7 | -18 | 0
COc1ccc(Cl)cc1C(=O)NCC(=O)OCc1ccccc1 | ? | 8 | -9 | 4.4 | 7 | 5 | 0
Cc1ccc(Cn2c(O)c(N=O)c3ccccc32)cc1 | 2416 | -3 | -17 | 4.0 | 5 | -13 | 2
O=C(CN1C(=O)NC2(CCCCC2)C1=O)Nc1ccccc1N1CCCC1 | 4145 | -5 | -16 | -1.1 | 9 | 6 | 13
O=C(NC1CCCC1)C1CCN(c2nccs2)CC1 | 2261 | 3 | -12 | -1.8 | 6 | . | .
CC(Sc1nnc(C2CC2)n1C)C(=O)Nc1ccc2c(c1)CCC2 (stereo unspecified) | 3946 | 7 | -24 | 6.2 | . | 15 | 6
COC(=O)c1cc(NS(=O)(=O)c2ccc(NCc3cccnc3)c(N)c2)cc(C(=O)OC)c1 | 2037 | 6 | -11 | 5.1 | -6 | 2 | 5
COc1ccc2cc3cc(C(=O)Nc4ccccc4N4CCN(C)CC4)oc3nc2c1 | 3953 | -1 | -14 | -1.1 | 25 | . | .
CCN(CC)CCNC(=O)C1c2cc(OC)c(OC)cc2C(=O)N2CCc3ccccc3C12 (stereo unspecified) | 4812 | 9 | -26 | 6.9 | . | . | .
COc1cc(OC)cc(-n2nc(C(=O)N3CCC4(CC3)OCCO4)c3ccccc3c2=O)c1 | 2313 | 1 | -23 | 3.3 | . | . | .
COc1ccccc1-c1nnc(SCC(=O)Nc2c(Cl)cccc2Cl)o1 | 19236* | 1 | -8 | 5.1 | -3 | 4 | -7
COc1cccc(C(c2nnnn2CCc2ccccc2)N2CCN(c3ccccc3)CC2)c1OC (stereo unspecified) | 4119 | -1 | -4 | 5.0 | -1 | 12 | 6
C=C(C)CNC(=S)NNC(=O)c1ccco1 | 10398 | 1 | -19 | 5.1 | -4 | 6 | 11
CC1=C(C(=O)OC(C)C)C(c2ccc(Br)s2)NC(=O)N1 (stereo unspecified) | 12300 | -10 | -12 | 0.3 | 0 | -1 | 0
COc1ccc(CNCC(=O)N2CCC3(CC2)OCCO3)cc1 | 12974 | 2 | -5 | 5.1 | -1 | 5 | 7
NC(=O)COC(=O)c1cc(Cl)cc(Cl)c1N | 2540 | 2 | -10 | 1.0 | -1 | -2 | -5
O=C(NC1CCCCC1)c1ccc(-n2cncn2)c([N+](=O)[O-])c1 | 3405 | 3 | -23 | 3.1 | . | 13 | 10
CC(=C/c1ccco1)/C=N/N1CCN(c2ccccc2)CC1 | 10063 | . | -36 | . | 22 | . | .
COc1cc2c(cc1N/C=C(\C#N)c1nc(-c3ccc(F)cc3)cs1)oc1ccccc12 | 4805 | . | -12 | . | 7 | . | .
CN(Cc1cccs1)C(=O)CNC(=O)c1ccco1 | 5313 | 12 | -32 | 2.9 | 8 | -2 | -7
Cc1cccc(OCC(=O)Nc2ccc3c(c2)OCO3)c1C | 4044 | -6 | -19 | 4.6 | -14 | 7 | 8
CC1(C)CC(=O)C=C(Nc2cccc(Cl)c2Cl)C1 | 3583 | 2 | -16 | 3.1 | -1 | -5 | -8
Cc1cccc(C)c1OCc1cc(C(=O)N2CCN(c3ccccc3)CC2C)no1 (stereo unspecified) | 5415 | -3 | 8 | -0.5 | 2 | 2 | 9
COc1ccc(-c2cc(C)nc3nc(N)nn23)cc1 | 4123 | 2 | -8 | 1.0 | 13 | 1 | 0
COc1ccc(OCc2cc(C(=O)NCc3nc(C)cs3)no2)c(Cl)c1 | 6100 | 5 | -42 | 0.0 | 3 | 1 | 17
Nc1nc(Nc2ccccc2)nc(N2CCOCC2)c1[N+](=O)[O-] | 7722 | -6 | -17 | 12 | 15 | 9 | 5

Ordered by count of non-hydrogen atoms (lowest first): three of the compounds above.
Molecule | Bead autofluor | ugtP null kill | PrP 5UTR inh | RN4220 kill | BJeLR viability | Mtb hypoxia inh | Mtb hypoxia inh growth
COc1ccc(-c2cc(C)nc3nc(N)nn23)cc1 | 4123 | 2 | -8 | 1.0 | 13 | 1 | 0
Cc1cccc(OCC(=O)Nc2ccc3c(c2)OCO3)c1C | 4044 | -6 | -19 | 4.6 | -14 | 7 | 8
O=C(NC1CCCCC1)c1ccc(-n2cncn2)c([N+](=O)[O-])c1 | 3405 | 3 | -23 | 3.1 | . | 13 | 10

Additional compounds
Molecule | Bead autofluor | ugtP null kill | PrP 5UTR inh | RN4220 kill | BJeLR viability | Mtb hypoxia inh | Mtb hypoxia inh growth
Cc1ccc(S(=O)(=O)N(C)c2ccc3c(ncn3C)c2[N+](=O)[O-])cc1 | 4158 | -2 | -14 | 1.7 | -1 | 15 | 2
CCOc1ccc(Nc2n[nH]c(=S)s2)cc1 | 2609 | -3 | -61 | 5.8 | -13 | -2 | 4
O=C(NC1CC2CCC1C2)c1ccc(CN2CCOCC2)cc1 (stereo unspecified) | 3861 | 5 | -20 | 3.0 | 1 | 12 | 7
Cc1cccc(-n2c(C)nc3ccccc3c2=O)n1 | 4530 | 3 | -27 | 3.6 | 3 | 3 | 7
COc1cccc(-n2cc(CNCc3c(C(=O)N(C)C)nc4ccc(Cl)cn34)cn2)c1 | 5129 | 0 | -3 | 3.8 | -7 | 3 | 2
CCOc1ccc(NC(=S)NNc2ccnc3cc(Cl)ccc23)cc1 | 4111 | -1 | -14 | -0.3 | 4 | 4 | 0
C[C@@H]1C[C@@H]2OC(=O)[C@]3(C)[C@H]2[C@@H](OC3(C)O)[C@]2(C)C(=O)C=C[C@H]12 (stereo partly specified) | 3990 | . | -22 | . | -14 | . | .
COc1cc(C)c(CN2CCSCC2)cc1C | 3976 | 3 | -51 | 7.2 | 9 | 7 | 2
O=C(Cn1cnc2c(cnn2-c2ccccc2)c1=O)Nc1cc(S(=O)(=O)N2CCOCC2)ccc1Cl | 2257 | -3 | -55 | -1.3 | -5 | -1 | 4
COc1cccc(CNC(=O)CCn2c(=O)c3cccn3c3cccnc32)c1 | 6183 | 9 | -12 | 0.8 | 1 | 1 | -11
CCCCCCCCCCn1ccc(=N)cc1 | 5137 | 101* | 0 | 100* | 4 | 14 | 6
COc1ccccc1-c1nn(-c2ccccc2)cc1C(=O)N1CCN(C(=O)c2ccco2)CC1 | . | -5 | -1 | -2.4 | . | 6 | 1

Part of the list above, with two lines to a compound.
Sequence of screens – Bead autofluor, ugtP null kill, PrP 5UTR inh, RN4220 kill, BJeLR viability, Mtb hypoxia inh, Mtb hypoxia inh growth
COc1cccc(CNC(=O)CCn2c(=O)c3cccn3c3cccnc32)c1
 : 6183, 9, -12, 0.8, 1, 1, -11
CCOc1ccc(Nc2n[nH]c(=S)s2)cc1
 : 2609, -3, -61, 5.8, -13, -2, 4
Cc1ccc(S(=O)(=O)N(C)c2ccc3c(ncn3C)c2[N+](=O)[O-])cc1
 : 4158, -2, -14, 1.7, -1, 15, 2
CCOc1ccc(NC(=S)NNc2ccnc3cc(Cl)ccc23)cc1
 : 4111, -1, -14, -0.3, 4, 4, 0
O=C(Cn1cnc2c(cnn2-c2ccccc2)c1=O)Nc1cc(S(=O)(=O)N2CCOCC2)ccc1Cl
 : 2257, -3, -55, -1.3, -5, -1, 4

Further entries:
Molecule | Bead autofluor | ugtP null kill | PrP 5UTR inh | RN4220 kill | BJeLR viability | Mtb hypoxia inh | Mtb hypoxia inh growth
Cc1ccc(C)c(N2CCN(C(=O)c3csc4ccccc34)CC2)c1 | 2570 | 16 | 4 | 9.0 | 6 | 7 | 10
Cc1ccc(S(=O)(=O)CCC(=O)Nc2cccc([N+](=O)[O-])c2)cc1 | 2505 | -3 | -24 | 5.7 | 2 | 10 | -2
O=C(CSc1ncnc2c1cnn2-c1ccccc1)Nc1ccc2c(c1)OCO2 | 2580 | . | 8 | . | -6 | . | .
Cc1ccc(NC2=NC(c3ccc(F)cc3)n3c(nc(C)cc3=O)N2)cc1 (stereo unspecified) | 3768 | 1 | -61 | 4.9 | -5 | 7 | 3
C/C(CC(=O)Nc1cccc2c1CCCC2)=N\NC(=O)c1cccc2ccccc12 | 2538 | . | -8 | . | 9 | . | .
O=C1c2ccccc2C(=O)N1Cc1cc(-c2ccccc2Cl)no1 | 6352 | 21 | -9 | 5.8 | -18 | 0 | -2
ClCCN(CCCl)c1ccc(C=Cc2ccncn2)cc1 | 5534 | -2 | . | 3.1 | . | 12 | 2
COc1ccc(NC(=O)c2csc3c2CCCC3)cc1 | 23873* | 1 | -114 | 0.6 | -7 | 14 | 14
CCN(CC)S(=O)(=O)c1c(OC)cc(C)c(Cl)c1C | 3756 | 4 | 6 | 5.5 | 4 | 21 | 11
